Screening data: PubChem BioAssay, ICCB-Longwood Screening Facility, Harvard Medical School
PV pol inh: poliovirus RNA polymerase inhibition; poliovirus polymerase elongation, fluorescence polarization; stronger effect = lower value; % elongation, % (compound at 16.7 µg/mL); 150,000 tested, 0.66% active; AID 588519; in the data active means % elongation below about 90%; further: some results filed as inactive read as strong as hits
Target sequence (P03300 1749-2209 limits assumed): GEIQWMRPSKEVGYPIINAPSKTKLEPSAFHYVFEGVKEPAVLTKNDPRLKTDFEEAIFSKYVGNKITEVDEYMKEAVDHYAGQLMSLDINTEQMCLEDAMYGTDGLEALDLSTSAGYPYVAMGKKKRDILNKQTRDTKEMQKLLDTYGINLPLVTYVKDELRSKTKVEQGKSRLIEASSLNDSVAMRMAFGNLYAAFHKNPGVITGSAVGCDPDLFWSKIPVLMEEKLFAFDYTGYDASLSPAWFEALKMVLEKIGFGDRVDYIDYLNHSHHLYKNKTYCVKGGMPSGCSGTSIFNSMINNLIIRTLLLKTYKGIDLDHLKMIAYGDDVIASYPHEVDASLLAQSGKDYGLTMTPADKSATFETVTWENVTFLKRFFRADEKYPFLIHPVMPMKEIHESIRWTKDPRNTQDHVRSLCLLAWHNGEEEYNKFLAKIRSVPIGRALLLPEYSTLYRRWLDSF
Mtb MenB inh: Mtb MenB enzyme inhibition | P9WNP5 | MenB enzyme assay, absorbance read-out; some hits fall short of the stated cut | inhibition, %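 (about 12 µg/mL by stock and volumes)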 | 100,000 tested, 0.43% active;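 active means mean of two replicates above 30%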;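 further: 0% = no compound and 100% = wells with inactive enzyme; the first replicate is given; strong numbers were not always called active; inactives centre near -10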
MbtI inh: blocks the Mycobacterium tuberculosis siderophore enzyme MbtI | AID 493033 | purified MbtI enzyme, fluorescence intensity read-out | inhibition, %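 (about 17 µg/mL by stock and volumes)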 | P9WFX0 | 100,000 tested, 0.89% active;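 active means above 50% in both replicates, above 80% if mildly self-fluorescent; inactive means the rest, strongly fluorescent compounds included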;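 further: 0% = mean of negative and 100% = mean of positive controls; one replicate is shown; some compounds called inactive have numbers as strong as hits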
Target sequence (P9WFX0 whole entry, looked up): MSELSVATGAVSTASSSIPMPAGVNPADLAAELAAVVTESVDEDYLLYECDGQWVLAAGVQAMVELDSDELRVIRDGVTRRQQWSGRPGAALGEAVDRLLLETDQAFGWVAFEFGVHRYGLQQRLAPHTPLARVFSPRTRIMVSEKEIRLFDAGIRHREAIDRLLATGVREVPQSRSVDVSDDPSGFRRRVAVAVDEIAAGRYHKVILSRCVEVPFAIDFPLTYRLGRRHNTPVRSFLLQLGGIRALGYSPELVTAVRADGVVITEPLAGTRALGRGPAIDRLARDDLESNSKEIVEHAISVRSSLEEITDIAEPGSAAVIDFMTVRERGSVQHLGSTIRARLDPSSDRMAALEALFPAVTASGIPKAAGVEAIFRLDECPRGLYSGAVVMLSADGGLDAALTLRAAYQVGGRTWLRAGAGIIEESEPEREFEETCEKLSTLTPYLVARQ
PV pol inh intensity: further read-out of PV pol inh, marked with its call; % elongation; measured here: total intensity read-out; formula for this scale not given here;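 total fluorescence in place of polarization; lower means less elongation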
* = called active by the depositor; nt = not tested or not shown; & = joins results of further samples.

SMILES	PV pol inh	PV pol inh intensity	Mtb MenB inh	MbtI inh
C=C1SC(Nc2cc(C)cc(C)c2)=NC1(C)C	99	103	4	-1
CCCCC[C@H](O)/C=C/[C@@H]1[C@@H](C/C=C\CCCC(=O)O)[C@H](O)C[C@H]1O	101&100	103&103	7	-22
Nn1c(SCC(=O)N2CCCc3ccccc32)nncc1=O	98	101	-46	8
COc1cc(C(=O)Nc2ccc3nc(N4CCN(C)CC4)cc(C)c3c2)cc(OC)c1OC	102	101	-27	-82
C=CC1OC2CCCCC2C2=CCCCC21 (configuration not stated)	102	100	-76	0
CC(CC(N)=O)c1ccccc1 (configuration not stated)	97	97	-24	-7
COc1ccc(OCC(=O)N=Nc2c(O)n(C)c3ccccc23)cc1	100	99	-83	0
O=C(O)C1CC=CCC1C(=O)NNc1ncnc2ccccc12 (configuration not stated)	104	95	13	14
CCOC(=O)c1c(C)[nH]c(C(=O)CSc2nccc(C)n2)c1C	106	106	-9	-5
COc1cc(NC(=O)C2CC(=O)N(c3cccc(C)c3C)C2)c(OC)cc1Cl (configuration not stated)	103	103	-2	nt
CCOC(=O)C1CCN(C(=O)C2c3ccccc3C(=O)N3CCc4ccccc4C23)CC1 (configuration not stated)	101	95	-22	-6
NC(=O)c1ccc(C(F)(F)F)cc1	106	108	-3	nt
NC(=O)C1CCN(C(c2ccc(F)cc2)c2nnc(-c3ccccc3)o2)CC1 (configuration not stated)	102	102	-12	-19
CS(=O)(=O)c1ccc(NC(=O)COc2ccc(C#N)cc2)cc1	100	106	12	-1
CN1CCCC(OC(=O)C2CCCCC2)C1 (configuration not stated)	103	109	nt	-6

Quoted at random: 5 compounds from above
SMILES	PV pol inh	PV pol inh intensity	Mtb MenB inh	MbtI inh
O=C(O)C1CC=CCC1C(=O)NNc1ncnc2ccccc12 (configuration not stated)	104	95	13	14
C=C1SC(Nc2cc(C)cc(C)c2)=NC1(C)C	99	103	4	-1
C=CC1OC2CCCCC2C2=CCCCC21 (configuration not stated)	102	100	-76	0
COc1ccc(OCC(=O)N=Nc2c(O)n(C)c3ccccc23)cc1	100	99	-83	0
CCOC(=O)C1CCN(C(=O)C2c3ccccc3C(=O)N3CCc4ccccc4C23)CC1 (configuration not stated)	101	95	-22	-6

The listing continues:
SMILES	PV pol inh	PV pol inh intensity	Mtb MenB inh	MbtI inh
O=C(Nc1ncn[nH]1)c1ccccc1O	100	100	nt	-39
Nc1nonc1-n1nnc(C(=O)N/N=C/c2ccncc2)c1-c1ccccc1	104	103	-33	-7
COc1nnc(-c2ccc(N3CCCCC3)c(NC(C)=O)c2)c2ccccc12	103	99	10	12
CC12CCC(=O)N1C(C(=O)Nc1cccc3ccccc13)CS2 (configuration not stated)	103	99	6	4
CCOC(=O)Cn1c(=O)oc2cc(S(=O)(=O)Nc3cccc(CC)c3)ccc21	100	104	-3	10
O=C(NCCNc1ccc2ccccc2c1)c1ccc2nc3ccc(Cl)cc3c(=O)n2c1	103	98	2	6
C1=CCC2CCC(C1)N2	103	105	-9	-5
O=C(Nc1ccccc1)OCC12COC(c3ccccc3)N1C(c1ccccc1)OC2 (configuration not stated)	101	106	-27	nt
O=C1c2ccccc2-c2c(NCCc3ccccc3)c(=O)[nH]c3cccc1c23	68	201	-30	-1
O=C1NC(c2ccccc2)(c2ccccc2)C(=O)N1CN1CCN(S(=O)(=O)c2cccs2)CC1	102	98	14	7
CCOc1cccc(C2C(C(=O)OC)=CN(CC)C=C2C(=O)OC)c1	110	104	-26	nt
Cc1sc(N)c(C(N)=O)c1C	89	127	-24	nt
COc1ccc(C2CC(C3(C)CCCCC3)=NO2)cc1 (configuration not stated)	102	105	-2	nt
Cn1cc(CN(Cc2ccccc2)C(=O)Nc2ccccc2)c2ccccc21	100	106	-41	-8
CCc1ccc(C2NC(=O)NC3=C2C(=O)CC(C)(C)C3)cc1 (configuration not stated)	101	104	-14	-3

One compound at a time, from the list above. Order of values: PV pol inh | PV pol inh intensity | Mtb MenB inh | MbtI inh
`CCOC(=O)Cn1c(=O)oc2cc(S(=O)(=O)Nc3cccc(CC)c3)ccc21` as listed: 100 | 104 | -3 | 10
`O=C1NC(c2ccccc2)(c2ccccc2)C(=O)N1CN1CCN(S(=O)(=O)c2cccs2)CC1` as listed: 102 | 98 | 14 | 7

The list goes on.
SMILES	PV pol inh	PV pol inh intensity	Mtb MenB inh	MbtI inh
CCN(CC)S(=O)(=O)c1ccc(N(C)Cc2ccccc2OC)nc1	108	106	-26	-21
CC(=O)N1CCCc2ccc(NC(=O)C(C)C)cc21	102	108	-8	-5
N#CC1=C(N)Oc2cc(O)ccc2C1c1ccccc1 (configuration not stated)	97	103	12	-2
O=C(O)CC(CC(=O)N1CCN(C(=O)c2ccco2)CC1)c1ccccc1 (configuration not stated)	105	106	-8	-5
CC(C)C1=CC2=C(CC(C)(C)CC2=O)OC1N(C)C (configuration not stated)	103	108	-11	nt
Cc1nnc(NCCc2ccccc2)c2c1nnn2Cc1ccc(F)cc1	101	98	17	0
CC(C)(C)C(=O)COC(=O)Cn1nnc(N2CCCC2)n1	102	109	-17	-2
Cc1nc(-c2ccccc2)cc(N2CCCC2)n1	102	103	-33	-95
CC(C)(C)C(=O)Cn1c(=O)n(CC2CCC(C(=O)NCc3ccccc3)CC2)c(=O)c2ccccc21 (configuration not stated)	100	99	0	-6
COc1cc2nc(CSc3nnc(C4CC4)n3C3CC3)[nH]c(=O)c2cc1OC	99	103	8	-12
c1ccc(-c2ccc3c(n2)CCc2ccccc2-3)cc1	110	112	8	-37
COc1ccc(NC(C)=O)cc1	102	118	3	-6
COc1ccc(NC(=O)c2ccco2)c(NC(=O)Cc2cccs2)c1	101	103	-31	-6
COc1ccc(Cc2nnc(N)o2)cc1OC	100	104	-7	3
CCOC(=O)c1nccnc1N(C(=O)c1ccc(C)cc1)C(=O)c1ccc(C)cc1	110	115	-22	nt
Cc1cc(C)n2nc(C(=O)NC(C)C3CC4CCC3C4)nc2n1 (configuration not stated)	96	98	-9	-5
CCn1c(C(=O)O)c(CNCc2cccc(Cl)c2)c2ccc(C)cc21	106	111	-8	-5
CCOC(=O)c1c(C)[nH]c(C)c1S(=O)(=O)N(CC)c1ccc(OC)cc1	102	104	-21	-12
Cc1cc(NC(=O)Cc2cccc3ccccc23)no1	105	103	-5	nt
CCN(CC)C(=O)C1=CC(c2ccc(F)cc2)=NS(=O)(=O)N1C	102	105	-23	-1
Cc1ccc(-c2nnc(SCC(=O)N3CC(C)CC(C)C3)o2)cc1 (configuration not stated)	100	101	-10	11
CCN1CCCC1CNC(=O)c1ccc(-n2ccc3ccccc32)s1 (configuration not stated)	99	96	7	107
CCN1CCc2c(OCC(=O)Nc3ccc(OC)cc3)cccc2C1=O	103	101	-24	-5
Cc1cc(C)cc(N2C(=O)N(CC(=O)NC(C)C)C3CS(=O)(=O)CC32)c1 (configuration not stated)	100	101	12	4
COc1cc(/C=N/NC(=O)c2ccccc2-n2cccc2)ccc1O	101	103	-58	2
CCOC(=O)CC1C(=O)NCCN1Cc1cccc2ccccc12 (configuration not stated)	100	102	0	0
NC(=O)c1ccc[n+](CC(=O)c2ccccc2)c1	105	107	-46	-4
Cc1ccc(C(CC(=O)O)C2CCOC(C)(C)C2)cc1 (configuration not stated)	103	103	24	2
O=c1cc(-c2ccccc2)nc(SCCO)[nH]1	105	101	-67	37
CCCCS(=O)(=O)c1sc2nc3c(cc2c1N)CCCC3	101	101	-5	-43

Some values from the results shown.
PV pol inh result of `c1ccc(-c2ccc3c(n2)CCc2ccccc2-3)cc1` → 110
PV pol inh intensity result of `CCn1c(C(=O)O)c(CNCc2cccc(Cl)c2)c2ccc(C)cc21` → 111
PV pol inh intensity result of `COc1cc(C(=O)Nc2ccc3nc(N4CCN(C)CC4)cc(C)c3c2)cc(OC)c1OC` → 101
Mtb MenB inh result of `O=C1NC(c2ccccc2)(c2ccccc2)C(=O)N1CN1CCN(S(=O)(=O)c2cccs2)CC1` → 14
PV pol inh result of `CCN1CCc2c(OCC(=O)Nc3ccc(OC)cc3)cccc2C1=O` → 103

3 structures from above, arranged by molecular weight, ascending.
SMILES	PV pol inh	PV pol inh intensity	Mtb MenB inh	MbtI inh
Cc1cc(NC(=O)Cc2cccc3ccccc23)no1	105	103	-5	nt
Cc1cc(C)n2nc(C(=O)NC(C)C3CC4CCC3C4)nc2n1 (configuration not stated)	96	98	-9	-5
CCOC(=O)CC1C(=O)NCCN1Cc1cccc2ccccc12 (configuration not stated)	100	102	0	0

Next part.
SMILES	PV pol inh	PV pol inh intensity	Mtb MenB inh	MbtI inh
O=C(CSc1nnc(-c2ccccc2F)n1Cc1ccccc1)N1CCNC1=O	104	109	-20	-6
CCCCOc1ccc(/C=N/n2cnnc2)cc1	103	107	0	11
CCN(CC(O)c1cccc(O)c1)C(=O)C12CC3CC(CC(C3)C1)C2 (configuration not stated)	103	98	nt	5
COC(C(=O)NCc1ccccc1C)c1ccccc1 (configuration not stated)	101	102	-9	-14
COC(=O)CC1C(=O)NCCN1C(=O)CSc1nc2ccccc2c(=O)n1-c1ccc(C)cc1 (configuration not stated)	100	104	5	20
Clc1nc(-c2ccccc2)nc2ccccc12	101	110	-6	35
O=C(NCc1ccccc1)N1CCN(C(c2ccc(F)cc2)c2ccc(F)cc2)CC1	103	107	-12	-8
CN(C)CCOC(=O)C1(c2ccccc2)CCOCC1	101	100	-5	-3
CCC(CC)c1nnc(NC(=O)C2=NNC(=O)CC2)s1	102	108	-21	1
CCCCN(C)S(=O)(=O)c1ccc(-c2ccc(=O)[nH]n2)o1	102	102	-13	12
Cc1ccc(S(=O)(=O)N2CCC(C(=O)OCc3cc(=O)n4cc(C)ccc4n3)CC2)cc1	101	96	12	3
O=C(CSc1nnnn1C1CCCC1)N1CCCC1	103	102	-38	-5
C=CCn1c(O)c(C2=c3cc(Br)ccc3=NC2=O)c2ccccc21	100	105	9	0
NC(=O)COC(=O)c1ccc(Cl)cc1	100	110	15	-10
Cc1[nH]nc2c1C1(CCN(C(=O)c3ccccc3)CC1)C(C#N)=C(N)O2	102	100	6	-4
Cc1ccc(C(c2nnnn2C2CCCC2)N2CCc3ccccc32)cc1 (configuration not stated)	101	104	15	20
COc1ccc(NC(=O)c2ccccc2NC(=O)c2ccco2)cc1	102	104	-16	-6
NC(=NCc1ccccc1)NS(=O)(=O)c1ccccc1	101	101	-24	0
O=COC1CCCCC1NS(=O)(=O)c1ccccc1 (configuration not stated)	102	104	-11	-3
COc1cccc2cc(-c3ccc(F)cc3)c(=O)oc12	101	104	-9	-7
CSc1ccccc1C(=O)OCC(=O)NC1CCCC1	100	96	-32	-5
Cc1ccc2nc(C3CCCCC3)oc2c1	105	109	-18	nt
Cc1cc(C)n(-c2nnc3n2N=C(c2c[nH]c4ccccc24)CS3)n1	102	107	-21	2
CC(C)(C)C(=O)/C=C/c1ccco1	101	107	-9	13
COc1ccc(CCNC(=O)CSc2ncnc3c2nnn3Cc2ccccc2)cc1OC	102	103	-3	3
Cc1cccc(C)c1NC(=O)Cn1nnc(C(=O)NCc2ccccc2Cl)c1N	104	104	-32	-30
COc1ccc2nc(NC(=O)c3ccc(Br)cc3)sc2c1	105	100	nt	8
CON(C)S(=O)(=O)c1ccc(C(=O)O)cc1	98	97	0	-3
O=S(=O)(NCc1ccc2c(c1)CCO2)c1ccc(C(F)(F)F)cc1	101	100	-8	0
CC(C)COc1cccc(OCC(=O)NC(C)C(=O)O)c1 (configuration not stated)	114	102	-12	-6
O=C(COC(=O)c1cccs1)NC1CCCC1	101	105	nt	-3
CC(C)n1c(C(F)(F)F)nc2cc(C(=O)N3CCOCC3)ccc21	101	107	-6	-11
COc1cc2c3c(c1OC)-c1cc(O)ccc1CC3NCC2 (configuration not stated)	105	106	-4	-11
Cc1ccc(NC(=O)C2CCN(S(=O)(=O)c3c(C)nn(C)c3C)CC2)c(Cl)c1	106	103	-17	5
O=C(CNc1ccc(Cl)cc1)N1CCN(c2ccccc2)CC1	110	110	0	2
COC(=O)CCSc1nc2c3ccccc3ncn2n1	104	107	-25	89
c1ccc(CNC2=NCCCCC2)nc1	109	117	-11	-35
COc1ccc(Sc2ccccc2COC(C)=O)c(C(=O)O)c1	109	113	-13	-8
CC(C)(C)OC(=O)N1CCN(c2ccc(NC(=O)c3ccco3)cc2)CC1	103	104	-20	-10
NNC(=O)c1nnn(-c2nonc2N)c1CNc1ccccc1	99	88	-31	nt
O=C(c1cccc(N2C(=O)c3ccccc3C2=O)c1)N1CCCCC1	101	94	-22	nt
CCOc1ccc(NC(=O)CC2Oc3ccccc3NC2=O)cc1 (configuration not stated)	103	101	-26	-14
S=c1oc2ccccc2n1Cn1c(=S)oc2ccccc21	98	107	-15	nt
Cc1ccc(-n2nc(C)c(C(=O)N3CCN(c4ncccn4)CC3)n2)c(C)c1	102	110	-4	-13
COc1ccc(C2C(C#N)=C(C)NC(C)=C2C(=O)Nc2ccccc2)cc1 (configuration not stated)	102	107	nt	-83
CCOCC(=O)NCc1ccccc1Cl	101	101	-32	-10
O=C1NC(=S)N(c2ccccc2)C(=O)/C1=C/C=C/c1ccco1	109	122	-43	1
CC(C)C(=O)N(C)c1nnc(-c2ccc(F)cc2)s1	100	101	10	0
C=CCn1c(=O)c(C(=O)NC)c(O)c2ccccc21	99	102	-26	11
CCc1nn(C(CC)C(=O)NC2CCCC2)c(=O)c2cc3oc(C)cc3n12 (configuration not stated)	100	98	-6	-7
CCCCNC(=O)C1CC(=O)N(CCc2ccccc2)C1 (configuration not stated)	99	102	-16	-18
Cc1ccc(S(=O)(=O)CCSC(=N)N)cc1	102	99	-31	8
CC(C)CC(C(=O)O)N1C(=O)C2CC=CCC2C1=O (configuration not stated)	102	104	nt	-12
O=C(CSc1ncn[nH]1)NC1CCCc2ccccc21 (configuration not stated)	102	105	nt	-8
